TRPV1 potentiator: enhances activation of the human vanilloid receptor TRPV1; Q8NER1; TRPV1-expressing cells, Fluo-8 calcium influx, capsaicin EC20 potentiation; host cell line not named in the record; control for the full effect not named in the record; AID 540277; 320,000 tested, 0.02% active; potentiation, % at 8.33 µM; active means potentiation above 80%; inconclusive means 30% to 80%; inactive means below 30%; note: 0% is about no effect
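Cells expressing TRPV1 were dye-loaded with Fluo-8 and read kinetically: 10 s baseline, 3 min after compound (agonist portion), then 2 min after EC20 capsaicin (allosteric enhancer portion). Calcium-bound dye fluorescence at 480/520 nm.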
Sfp PPTase inh: Sfp phosphopantetheinyl transferase inhibition. Q9F4F7. Biochemical Sfp PPTase activity, qHTS. Potency, µM, for inactives: max response, negative = inhibition, most hits filed as inhibitors. 310,000 tested, 3.5% active. AID 1490; active = well fitted inhibition curve with a large enough effect; inconclusive = small, poorly fitted or top-dose-only effect, or another doubt; inactive = no such curve, though single readings can be large or run the other way;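 note: the enzyme is Sfp with the accession as filed and its product quenches rhodamine fluorescence; potency is the fitted concentration of half-maximal effect; 0% = enzyme reaction without inhibitor and -100% = no enzyme wells; top concentration of the series not given in the record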
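Buffer: 50 mM Hepes-Na pH 7.6, 10 mM MgCl2, 0.01% Nonidet P-40, 0.01% BSA. Enzyme 15 nM, pre-exposed to compound 15 min; substrates then added and fluorescence change tracked over 30 min.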
gsp antagonist: antagonizes gsp, the McCune-Albright syndrome mutation; AID 624288; Potency, µM (titrated, usually from 76.9 µM), for the others: at the top dose activity change, negative = inhibition, hits mostly inhibitors; 340,000 tested, 0.4% active; gsp-mutant cells, cAMP HTRF, 30 min; control for the full effect not named in the record; active = falling curve of any shape with a large fitted effect; inconclusive = falling curve, mostly with a smaller effect; inactive = flat or rising curve; cell line not stated here;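 note: intracellular cAMP measured with PDE inhibitor Ro 20-1724 present during compound exposure; potency is the fitted concentration of half-maximal effect; % is set by controls: 0 for no effect and ±100 for the full control effect; nearly all actives have a fitted effect of over 65% in size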
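Measurement of cellular cAMP by homogeneous time-resolved fluorescence following a 30 min compound exposure at 37C. The PDE inhibitor […] was present throughout; the assay buffer was DPBS with 0.05% BSA and 0.005% Tween 20.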
gsp agonist: gsp mutant agonism; Potency, µM (series often up to 76.9 µM), without a hit: at the top dose activation (cAMP increase), actives largely listed as activators; 340,000 tested, 0.13% active; gsp mutant cells, cAMP HTRF, 30 min; control for the full effect not named in the record; active = well fitted activation curve with a large enough effect; inconclusive = small, poorly fitted or top-dose-only effect, or another doubt; inactive = no such curve, though single readings can be large or run the other way; cell line not stated here;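 note: phosphodiesterase inhibitor Ro 20-1724 added with compounds to block cAMP breakdown; potency is the fitted concentration of half-maximal effect; nearly all actives have a fitted effect of over 60% in size; about a fifth of the inactives were tested at one dose only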
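Cells stably selected in G418 were plated at 2000/well, grown 16-24 hr, then given compounds in DMSO with the PDE inhibitor […] (300 uM solution added) for 30 min at 37C; cAMP was read by HTRF.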
D2 potentiator: positive allosteric modulators of human D2 dopamine receptor; P14416; potentiation, % (test concentration not listed); AID 624464; 360,000 tested, 0.23% active; DiscoveRx D2 beta-arrestin cells, luminescence, 90 min; 100% = 57 uM dopamine signal; active = potentiation of 50% or more; inconclusive = 30% to 50%; inactive = 30% or less;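 note: compound concentration not given in the record; tested on top of an EC20 dose of dopamine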
Target sequence (P14416 whole entry, looked up): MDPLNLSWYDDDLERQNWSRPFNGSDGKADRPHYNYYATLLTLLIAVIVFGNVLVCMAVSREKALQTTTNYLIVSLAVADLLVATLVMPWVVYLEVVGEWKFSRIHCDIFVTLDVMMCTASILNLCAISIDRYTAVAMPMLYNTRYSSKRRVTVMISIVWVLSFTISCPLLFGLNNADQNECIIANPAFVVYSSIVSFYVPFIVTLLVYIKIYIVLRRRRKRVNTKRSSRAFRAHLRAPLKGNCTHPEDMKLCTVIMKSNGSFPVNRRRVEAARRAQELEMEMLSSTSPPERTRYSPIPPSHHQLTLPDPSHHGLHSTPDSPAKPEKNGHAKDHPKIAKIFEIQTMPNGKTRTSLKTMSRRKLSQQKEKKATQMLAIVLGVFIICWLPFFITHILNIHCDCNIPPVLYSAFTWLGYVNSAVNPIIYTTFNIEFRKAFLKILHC
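D2 cells co-treated with compound plus 50 nM dopamine (EC20) for 90 min at 37 deg C to detect potentiation. Beta-arrestin recruitment was read as enzyme-fragment luminescence after 1 h at ambient temperature. Full response was set by 57 uM dopamine.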
Menin MLL FP FL: inhibitors of human menin-MLL interaction, wild-type MLL peptide; AID 1766; FP activity change, % at 61.4 µM; 290,000 tested, under 10 active; Fluorescence polarization, fluorescein-MLL peptide displacement from menin; inconclusive = falling polarisation curve, or a change in total fluorescence; inactive = total fluorescence flat and polarisation flat or rising; no compound was filed as active; the % refers to the polarisation; negative = inhibition;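 note: % of control where 0% means no effect; inhibitors lower the polarisation; unlabelled MLL peptide was the positive control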
ClpP mod: qHTS Assay for Activators of ClpP; ATP-dependent Clp protease proteolytic subunit (Bacillus subtilis (strain 168)), P80244; purified B. subtilis ClpP, FRET peptide cleavage, 20 min; AID 651965, 2013; 340,000 tested, 1.9% active; Potency, µM (series often up to 57.5 µM), without a hit: at the top dose activity change, negative = active; active = well fitted falling curve with a large enough effect; inconclusive = small, poorly fitted or top-dose-only effect; inactive = no such curve, though single readings can be large or run the other way; note: potency is the fitted concentration of half-maximal effect; the source files actives as falling curves though it sought activators and does not explain the sign; nearly all actives have a fitted effect of over 65% in size; many hits overshoot -100%
Target sequence (P80244 whole entry, looked up): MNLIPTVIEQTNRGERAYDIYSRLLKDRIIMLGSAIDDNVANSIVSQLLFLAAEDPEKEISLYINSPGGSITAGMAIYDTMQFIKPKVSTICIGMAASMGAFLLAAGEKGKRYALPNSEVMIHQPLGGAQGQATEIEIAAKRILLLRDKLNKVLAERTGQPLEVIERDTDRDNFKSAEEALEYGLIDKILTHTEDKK
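Purified B. subtilis ClpP, 10 microg/mL final in Tris/HCl pH8 with KCl, BSA, glycerol and Tween-20, cleaved an Abz/nitrotyrosine-quenched decapeptide. Fluorescence (ex 320, em 430) was read at 0 and 20 min at room temperature. Delta was normalized to 5.8 microM ADEP and DMSO/no-enzyme controls.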
The depositor's hits bear a star; ? = inconclusive; / = not tested or not shown; & = joins results of further samples; [ ] = dose if it differs, or a comment.

Sample of the layout, 2 compounds:
SMILES | TRPV1 potentiator | Sfp PPTase inh | gsp antagonist | gsp agonist | D2 potentiator | Menin MLL FP FL | ClpP mod
CCOC(=O)C1CCN(C(=O)COC(=O)c2ccccc2OCC)CC1 | / | / | -1% | ? | 0 | / | -27%
COCc1nnc(NC(=O)c2ccc(OC)cc2OC)s1 | 5 | -22% | -1% | -20%[15.4 µM] | -6 | 0.7 | /

The listing, previewed entries included:
SMILES | TRPV1 potentiator | Sfp PPTase inh | gsp antagonist | gsp agonist | D2 potentiator | Menin MLL FP FL | ClpP mod
CCOC(=O)C1CCN(C(=O)COC(=O)c2ccccc2OCC)CC1 | / | / | -1% | ? | 0 | / | -27%
COCc1nnc(NC(=O)c2ccc(OC)cc2OC)s1 | 5 | -22% | -1% | -20%[15.4 µM] | -6 | 0.7 | /
O=C(O)c1cc(O)c2c(c1)[C@@H]([C@H]1c3cc(C(=O)O)cc(O)c3C(=O)c3c(O[C@@H]4O[C@H](CO)[C@@H](O)[C@H](O)[C@H]4O)cccc31)c1cccc(OC3O[C@H](CO)[C@@H](O)[C@H](O)[C@H]3O)c1C2=O (stereo partly specified) | 2 | / | 12% | / | -15 | / | -2.4%
COc1ccc(CC(=O)Nc2nccs2)cc1S(=O)(=O)N1CCOCC1 | / | / | -9% | 22% | -14 | / | 1.4%
Cn1ncc(Br)c1C(=O)Nc1c(F)c(F)cc(F)c1F | 1 | 4% | -3% | 4% | -13 | -0.5 | 3.2%
CCCOc1ccccc1C(=O)N(Cc1cccc(Br)c1)C1CCS(=O)(=O)C1 (stereo unspecified) | -6 | 3% | -21% | -6% | 3 | / | 0.0%
COc1ccc(-c2sc3ccc(N4CCOCC4)cc3c2-c2ccc(OC)c(F)c2)cc1 | -11 | 1% | 1% | -1% | -3 | 1.8 | -17%
Cn1c(CCC(=O)OCC(=O)Nc2ccc(Oc3ccccc3)cc2)nc(=O)c2ccccc21 | 11 | 8% | -19% | 10% | -10 | 0.0 | -2.7%
COc1cc(/C=C2/C(=O)N(c3ccc(C)c(C)c3)N=C2C)cc([N+](=O)[O-])c1O | -1 | -4% | -18% | 1% | -6 | 3.1 | 0.6%
Cc1ccc(-n2nc3c(=O)n(CCCC(=O)NCc4ccc(Cl)cc4)nc(C)c3c2C)cc1 | 1 | -15% | 0% | -6% | -9 | 1.8 | -3.8%
CCOc1cc(OCC)c(C(C)=O)cc1OCC | 2 | / | -2% | / | -4 | / | -0.9%
Clc1ccc2nnc(Cl)n2n1 | -7 | 17% | 0% | 10% | -1 | 3.2 | /
Cc1ccc(NC(=O)C2CCN(S(=O)(=O)c3cnc[nH]3)CC2)cc1C | 6 | 2% | 9% | -22% | 4 | 1.2 | -2.7%
COC(=O)c1ccc(C(=O)OC)c(NC(=O)C2CC(=O)N(C3CCCC3)C2)c1 (stereo unspecified) | / | / | 2% | 8%[15.4 µM] | 1 | / | /
COc1cccc(/C=N/NC(=O)c2ccncc2)c1OC(=O)c1ccc(Br)cc1 | -22 | 13% | -16% | 3% | 6 | / | -0.1%
COc1ccccc1NC(=O)COC(=O)CCS(=O)(=O)c1ccc(C)cc1 | 0 | 12% | -2% | -66%[inhibitor] | -11 | / | 2.7%
Cc1nn(C(=O)c2ccc([N+](=O)[O-])cc2)c(C)c1Br | 3 | 15% | 10% | 6% | -3 | -1.7 | 0.2%
CCCC/C(O)=C1\C(=O)CC(C)(C)CC1=Nc1ccc(OC)cc1 | -11 | -1% | ? | 0% | 4 | 2.8 | -1.1%
CNC(=O)c1cc2cc(OC)ccc2oc1=O | 4 | 12% | 8% | 1% | 6 | -5.6 | 28µM*
CCC1CN(S(=O)(=O)c2cc(-c3cc(C)no3)ccc2OC)c2cc(C)ccc2O1 (stereo unspecified) | -15 | 1% | -13% | -8% | -25 | 6.4 | -1.3%&1.0%
CSC(=NC#N)N1CCN(C(c2ccccc2)c2ccccc2)CC1 | -14 | -12% | -24% | -3% | 1 | -0.4 | -2.8%
CCOC(=O)CCc1c(C)nc(SCc2ccc(C(=O)O)cc2)c(C#N)c1C | -7 | 4% | ? | 13% | -5 | -0.5 | -5.1%
CCCc1cc(=O)oc2c3c(cc(OCC(=O)N4CCC[C@H]4C(=O)O)c12)OC(C)(C)CC3 | -2 | 26% | 4% | / | 8 | 2.3 | 5.0%
O=C(c1cccnc1)N1CCC2CC1c1c(Cl)cccc12 (stereo unspecified) | / | / | / | -1% | 2 | / | -1.3%
O=S(=O)(c1ccc(Cl)nc1)N1CCN(c2ncccn2)CC1 | 17 | 15% | 14% | -19% | 2 | -0.1 | -0.9%
Cc1ccc(NC(=O)COc2ccc(/C(N)=N/O)cc2)cc1C | -3 | 4% | 12% | 4% | 15 | 1.6 | -10%
CC(=O)Nc1ccc(OC(=O)CC2SC(=O)NC2=O)cc1 (stereo unspecified) | / | -8% | 10% | 41% | -6 | 7.3 | -1.4%
COc1cccc(/C=N/NC(=O)Cn2ccnc2C)c1 | 8 | 8% | -2% | -1% | -17 | 2.6 | -17%
O=C(Nc1nccs1)NC(C(F)(F)F)C(F)(F)F | 5 | 3% | -1% | -45%[inhibitor] | 2 | 2.3 | -0.1%
COc1ccc(CCNS(=O)(=O)c2cc3c4c(c2)CCN4C(=O)CC3)cc1OC | -2 | / | -5% | 1%[15.4 µM] | 12 | / | 2.3%
COc1ccc2c(c1OC)C(=O)OC2Nc1nc(-c2cc3ccccc3oc2=O)cs1 (stereo unspecified) | -11 | -21% | 1% | 8% | 4 | -0.9 | -13%
CCCCc1c(O)c2cccc3c2n(c1=O)CCC3 | / | / | -12% | 2%[15.4 µM] | -9 | / | /
COC(=O)c1cccc(NS(=O)(=O)c2ccc(OC)cc2)c1C | 9 | 7% | 13% | -44%[inhibitor] | -6 | 0.2 | 0.8%
COc1ccc(Cl)cc1NC(=O)C1COc2ccccc2O1 (stereo unspecified) | 3 | -19% | -11% | -4% | -4 | 0.9 | -0.1%
O=C(NNS(=O)(=O)c1ccc(F)cc1F)C1Cc2c(ccc3ccccc23)O1 (stereo unspecified) | / | 9% | -1% | 19% | 10 | -1.9 | -2.9%
O=C(O)c1ccccc1C(=O)Nc1nccs1 | / | -7% | 10% | -4% | 1 | -6.5 | -4.2%
O=[N+]([O-])c1ccc(C[n+]2cccc3c4ccccc4ccc32)cc1 | 4 | 20% | 6% | -35%[inhibitor] | -4 | 13 | 3.5%
CCC(c1nnnn1Cc1ccccc1)N(Cc1cc2cc(OC)ccc2[nH]c1=O)CC1CCCO1 (stereo unspecified) | -2 | -86% | -16% | ? | 1 | -5.2 | -19%
COC(=O)c1ccc(NC(=O)C2C3C=CC(C3)C2C(=O)O)cc1 (stereo unspecified) | 1 | -2% | 13% | ? | -10 | 0.4 | -0.9%
CN(/N=C/c1ccc(-c2ccc([N+](=O)[O-])cc2)o1)c1ccccc1 | 12 | -4% | -3% | 26% | 0 | ? | /
CCOC(=O)C(CC)Sc1nnc(COc2ccc(C)cc2)n1-c1ccccc1 (stereo unspecified) | 11 | -5% | 3% | 1% | -16 | 4.3 | 1.0%
CCOc1ccc(CNC(=O)CCCC(=O)n2ncc3cc(C)ccc32)cc1 | -13 | 12% | 5% | 1% | -2 | 5.9 | 0.2%
Nc1ncncc1-c1ccc(F)cc1 | / | / | / | -3% | -10 | / | -2.8%
Cc1cc(NC(=O)CCC(=O)N(CC2CCCO2)C(C(=O)NC2CCCC2)c2ccccc2C)no1 (stereo unspecified) | / | / | -9% | -2% | 29 | / | 1.0%
CCn1c(NCCO)nc2c(c1=O)C(C)(CC)Cc1ccccc1-2 (stereo unspecified) | -13 | 9% | -25% | -4%[15.4 µM] | -4 | 1.5 | 0.5%
CCn1c2ccccc2c2cc(NC(=O)COc3ccccc3OC)ccc21 | -30 | 10% | 21% | 8%[15.4 µM] | -5 | 6.3 | -21%
O=C(COc1ccc(Oc2ccccc2)cc1)NC1CCS(=O)(=O)C1 (stereo unspecified) | / | / | 3% | 0% | 1 | / | /
CCc1ccc2c(c1)C(=O)c1ccccc1C2=O | 1 | 3% | -7% | -1% | -4 | / | -0.5%
CN(C)CCCNC(=O)C[C@H]1C[C@H](C(=O)N2CCCCC2)[C@@]2(C)c3[nH]c4cc(-c5ccco5)ccc4c3CCN2C1=O | / | / | 3% | / | 1 | / | 3.7%
Cc1c(CCC(=O)NCCC(=O)O)c(=O)oc2c(C)c3oc4c(c3cc12)CCCC4 | 8 | 12% | -8% | ? | -4 | 4.3 | -22%
COC(=O)c1ccccc1NC(=O)CSc1nc(NC(=O)c2ccccc2)c2c(C)c(C)oc2n1 | 4 | 4% | -2% | 20% | 7 | 1.4 | ?
CCOC(=O)C(C)Sc1nc2c(c(-c3cccs3)c1C#N)CCC2 (stereo unspecified) | 6 | 50µM* | ? | ? | -4 | 15 | /
Cc1ccsc1C(=O)N1CCN(c2ccccn2)CC1 | 7 | 14% | 4% | -56%[inhibitor] | -20 | -0.6 | -16%
Cc1ncc(CSc2ccc(Cl)cc2)c(CO)c1O | -21 | 15% | 5% | -3%[15.4 µM] | 0 | -3.7 | -3.0%
O=C(/C(=N/O)c1ccccc1)c1ccccc1 | / | / | 8% | 7% | -8 | / | -0.4%
CSc1ccc(S(=O)(=O)N2CCCC2)cc1 | -23 | 3% | -4% | 12% | 1 | -3.1 | -0.5%
NC(=O)c1nsc(C(=O)N(c2ccccc2)C(C(=O)NCC2CCCO2)c2ccc3ncccc3c2)c1N (stereo unspecified) | -9 | 12% | -6% | -8%[15.4 µM] | 4 | 3.8 | /
CCC(=O)N1c2ccc(S(=O)(=O)NCCc3ccc(C)cc3)cc2CC1C (stereo unspecified) | -29 | 0% | -5% | -9% | -1 | / | -1.8%
Cc1cc(C)nc(N2CCC(C(=O)NC3CCCCCC3)CC2)n1 | / | / | 1% | -45%[inhibitor] | -4 | / | -1.3%

Assay outcomes from PubChem BioAssay.

Outcome played no part in choosing rows, and some 5.1% of all compounds hit somewhere here.
